Yeast UUG start = alters start codon recognition fidelity in yeast. 350,000 compounds, 0.13% hits. S. cerevisiae UUG-firefly luciferase reporter, luminescence/redox ratio. activity score, % at 18.7 µM;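 active = replicate mean at a twofold rise or more, about +100% in these data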;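 also: firefly luciferase made from a UUG start codon reports start codon fidelity; reporter light over untreated wells divided by growth signal over untreated wells; some hits fall short of that in this replicate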
MT1-MMP act inh = blocks activation of human MT1-MMP | P50281 | HT1080 RFP-PRO-GFP cells, GFP/RFP ratio fluorescence, overnight; percent of plate control window, DMSO zero | GFP/RFP ratio change, % at 20 µM | 360,000 compounds, 0.061% hits;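 active = GFP/RFP ratio change of at least 30% with cell ATP level not reduced by more than half and red fluorescence within 50% of control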; also: strong numbers were not always called active
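Compound: 20 µM single dose, 1% DMSO / System: HT1080 RFP-PRO-GFP cells / Controls: DMSO and RFP-L50D-GFP cell wells / Read-out basis: GFP/RFP fluorescence ratio / Schedule: overnight compound exposure at 37 °C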
eIF4H inh = inhibitors of RNA binding by human eIF4H. Q15056. inhibition, % at 35 µM. eIF4H fluorescence polarization binding assay. 290,000 compounds, 0.94% hits. AID 2012;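 active = 50% or more with normal probe brightness, or confirmed in later tests; about a fifth of its hits are not listed in these tables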;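 also: calls also rest on retests at 20 µM and on dose response follow-up; 0% = protein and probe with vehicle and 100% = probe without protein; strong numbers were not always called active; many hits fall short of the cut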
Rce1 inh = yeast Ras-converting enzyme inhibition; Q03530; yeast membranes, quenched prenylated peptide cleavage fluorescence; calls only; 290,000 compounds, 0.27% hits; AID 2563;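 active = fall in fluorescence gain of 50% or more versus controls, with final raw signal at or below 3038400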;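 also: plate controls were neutral control wells for no effect and wells lacking membranes for full effect; tested at 10 µM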
Target sequence (Q03530 whole entry, looked up): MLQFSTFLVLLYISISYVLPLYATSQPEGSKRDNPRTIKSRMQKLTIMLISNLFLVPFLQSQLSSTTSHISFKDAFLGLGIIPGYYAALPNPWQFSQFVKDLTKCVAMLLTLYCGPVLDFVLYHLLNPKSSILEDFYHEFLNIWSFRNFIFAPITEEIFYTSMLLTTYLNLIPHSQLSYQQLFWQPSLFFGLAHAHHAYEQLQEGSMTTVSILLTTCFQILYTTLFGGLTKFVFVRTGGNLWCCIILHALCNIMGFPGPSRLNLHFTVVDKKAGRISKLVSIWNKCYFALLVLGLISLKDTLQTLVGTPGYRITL
PABP polyA inh = PABP-poly(A) binding inhibition. P11940. PABP-poly(A) RNA binding, fluorescence polarization. inhibition, % at 35 µM. 290,000 compounds, 1% hits. AID 2014;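 active = 50% or more with normal probe brightness, or confirmed in later tests; about a fifth of its hits are not listed in these tables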;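 also: calls also rest on retests at 20 µM and on dose response follow-up; controls were probe without protein and protein plus probe with vehicle; some compounds called inactive have numbers as strong as hits; many hits fall short of the cut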
Target sequence (P11940 whole entry, looked up): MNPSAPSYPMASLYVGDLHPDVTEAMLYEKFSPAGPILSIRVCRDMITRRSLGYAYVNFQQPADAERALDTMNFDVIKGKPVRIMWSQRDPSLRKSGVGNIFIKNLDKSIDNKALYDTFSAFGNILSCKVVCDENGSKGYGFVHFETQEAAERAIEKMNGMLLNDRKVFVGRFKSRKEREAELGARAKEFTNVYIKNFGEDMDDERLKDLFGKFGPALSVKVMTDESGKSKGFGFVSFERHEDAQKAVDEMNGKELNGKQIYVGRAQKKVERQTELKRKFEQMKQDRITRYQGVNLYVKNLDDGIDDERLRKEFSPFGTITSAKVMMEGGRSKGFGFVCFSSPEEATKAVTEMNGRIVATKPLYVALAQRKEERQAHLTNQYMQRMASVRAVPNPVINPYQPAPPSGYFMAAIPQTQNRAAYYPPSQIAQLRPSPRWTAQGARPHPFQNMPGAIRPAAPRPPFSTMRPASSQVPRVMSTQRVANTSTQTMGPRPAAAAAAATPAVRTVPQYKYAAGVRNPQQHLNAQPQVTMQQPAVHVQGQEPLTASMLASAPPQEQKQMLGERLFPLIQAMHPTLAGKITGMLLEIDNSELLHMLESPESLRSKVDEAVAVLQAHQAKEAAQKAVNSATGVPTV
CSC inhib = blocks cancer stem cells; cancer stem cell-like cells viability, luminescence; inhibition, % at 7.5 µM; 300,000 compounds, 1.1% hits; AID 2717;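 active = mean at 75% or more and at least half the replicates too; tested in HMLE shEcad cells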;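 also: 0% = median of negative and 100% = median of positive control wells; the first replicate is given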
HIV Env fusion = blocks HIV Env-driven cell-cell fusion; HeLa-JRFL Env/CEM21 cell fusion, luciferase; inhibition, % at 12.3 µM; 360,000 compounds, 1.1% hits;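 active = mean replicate inhibition score of at least 50 and every replicate individually at or above 50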;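 also: 0% = plate neutral controls and 100% = maraviroc near 300 nM; one replicate is shown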
MT1-MMP act inh RFP = also measured in MT1-MMP act inh; calls as there; RFP signal change, %; measured here: RFP expression control read;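 0 = vehicle wells; hits needed this value within 50% of zero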
Starred values were filed as active, the others as inactive; i = inactive; . = not tested or not shown; & = joins results of further samples; [ ] = remark or other dose. An excerpt, so the mix of outcomes need not match the whole.

SMILES	Yeast UUG start	MT1-MMP act inh	MT1-MMP act inh RFP	eIF4H inh	Rce1 inh	PABP polyA inh	CSC inhib	HIV Env fusion
Cc1nn(Cc2noc(C(=O)NCCc3ccccn3)n2)c(C)c1Br	-10	3	-6	-2	.	-11	5	9
COCCn1c(SCC(=O)NCC2CCCO2)nc2c(c1=O)SC(C)C2 (stereo not given)	-10	0	2	13	i	-9	-9	.
CCN(CC)S(=O)(=O)c1ccc(Cl)c(NC(=O)COc2ccc(OC)cc2)c1	.	-1	-3	0	i	-2	8	6
CC1CCN(C(=O)COC(=O)c2cccc(NS(=O)(=O)c3ccccc3)c2)CC1	-9	2	-1	.	i	.	-5	-7
O=C(N/N=C/c1ccccc1)c1ccc(-c2ccccc2)cc1	-8	-1	-1	0	i	5	3	0
O=[N+]([O-])c1ccc(/C=N/NC(=S)Nc2ccc(Cl)cc2Cl)s1	-14	-11	-6	16	.	17	124*	-93
COc1ccc(S(=O)(=O)N2CCCC(C(=O)Nc3cccc(C(C)=O)c3)C2)cc1 (stereo not given)	-2	-10	-11	-9	i	-6	-10	.
Cc1ccc(S(=O)(=O)NC(=O)C2(C)CCN2C(=O)C2(c3ccc(Cl)cc3)CCC2)nc1 (stereo not given)	2	11	10	.	.	.	.	4
Cc1ccc(OCCCC(=O)Nc2ccc(N3CCOCC3)cc2)cc1	0	13	5	2	i	-7	11	.
O=C(C1CCCCC1)N1CCCC(c2nc(-c3ccc(F)cc3)no2)C1 (stereo not given)	0	0	1	1	i	2	-10	45
CN(CC(=O)NCc1ccc(F)cc1)S(=O)(=O)c1cccc2nsnc12	-18	1	2	-4	i	4	-11	-30
Cc1ccc(S(=O)(=O)NCc2ccco2)c(C)c1C	-3	0	-1	-10	i	11	4	.
Cc1cc(C)c(N=Cc2c(O)n(-c3nccs3)c(=O)c3ccccc23)c(C)c1	-11	2	-2	-9	i	-9	-5	.
Cc1cc(C(=O)Nc2ccccc2C(=O)O)c(C)o1	-14	-1	3	10	.	7	-5	-5
Cc1ccc(-n2cc(C(=O)c3ccccc3O)cn2)cc1	-59	0	1	-2	i	-1	14	-170
CC(=O)c1c(O)cc(C)n(Nc2nc(C)cc(C)n2)c1=O	-1	1	2	-2	i	12	-7	19
CS(=O)(=O)c1ccc(-c2sc3cc4c(cc3c2C(=O)NN2CCOCC2)OCO4)cc1	-18	4	1	.	.	.	8	-18
COC(=O)c1cn(Cc2ccccc2C)nn1	.	-1	2	0	i	-6	-4	.
CC(=O)N(C)c1ccc(NC(=O)C(Sc2ccccc2)c2ccccc2)cc1 (stereo not given)	.	5	2	-1	i	2	9	-8
COc1ccccc1N(CC(=O)N1CCN(c2ccccc2)CC1)S(=O)(=O)c1ccc(C)cc1	10	0	1	5	i	9	-3	18
Cc1nnc(SCC(=O)N(C)c2ccccc2)n1Cc1ccccc1	.	2	2	-4	i	0	0	0
CC(C)CCNC(=O)C(=O)NC1CCCC1	.	4	4	-2	.	-9	.	3
CCOCCCNCc1cccc(OCc2ccc(F)cc2)c1	.	6	7	6	i	0	4	9
O=c1c2ccccc2n2c(=S)[nH]nc2n1-c1ccccc1	-24	4	8	-12	.	8	-14	21
O=C(Nc1nccs1)c1sc2ccccc2c1Cl	-17	5	0	3	i	-3	40	.

Next structures
SMILES	Yeast UUG start	MT1-MMP act inh	MT1-MMP act inh RFP	eIF4H inh	Rce1 inh	PABP polyA inh	CSC inhib	HIV Env fusion
N#C/C(=C(/O)CCl)c1nc2c(s1)CCc1ccccc1-2	-7	-2	5	-2	i	17	34	-12
Cc1noc(C)c1CSCC(=O)Nc1cc(C(F)(F)F)ccc1N1CCCCC1	11	-17	-4	.	i	.	18	16
O=C(O)CCS(=O)(=O)Cc1cccc(Cl)c1	-3	-5	-1	-2	.	-3	.	.
O=C(CSc1nc2ccccc2n1Cc1ccc(Cl)cc1)N/N=C/c1ccc(C(=O)O)cc1	.	0	-4	0	i	-2	-6	8
Cn1c(Cn2nnc3ccccc32)nnc1SCC(=O)Nc1ccc2c(c1)OCO2	-6	-1	1	0	i	-6	0	.
COc1ccc(C2/C=C\CC(OCc3ccccc3)CC(=O)N2Cc2cccc(F)c2)cc1 (stereo not given)	-9	-11	-15	.	.	.	.	12
Cc1ccc(C)c(NC2CCCCC2NS(=O)(=O)c2ccccc2)c1 (stereo not given)	-14	-1	-4	.	i	.	-11	19
CCO[C@@H]1OC(C(=O)NC2CC2)=C[C@H](c2coc3ccccc3c2=O)[C@H]1CCCO	-4	-3	1	.	i	.	1	-20
Cc1occc1C(=O)NCCCCNC(=O)c1ccoc1C	-5	-2	3	-2	i	5	-8	-9
Cc1ccc(F)cc1C(=O)N1CCCC(C)(C(=O)NS(=O)(=O)C2CC2)C1 (stereo not given)	-18	2	2	.	.	.	.	-23
Cc1c(NC(=O)c2cccs2)c(=O)n(-c2ccccc2)n1C	-16	4	5	-6	i	0	-10	9
Cc1ncc([N+](=O)[O-])n1CC(=O)NC1CCCC1	-10	-2	4	-11	i	-10	18	.
CCCC(=O)c1c(NCCO)cc(C)oc1=O	.	3	6	2	i	-3	-9	-39
C/C(=N\N=C1\NC(=O)C(CC(=O)O)S1)c1ccccn1 (stereo not given)	5	2	2	27	.	4	3	9
CCCN(c1ccc(OCC)cc1)S(=O)(=O)c1ccc2c(c1)NC(=O)CO2	-14	-10	-12	-8	i	3	.	-9
CN(Cc1c(F)cccc1Cl)C(=O)CCc1c[nH]c2ccccc12	-1	4	1	-3	i	-9	-9	8
COCCN(C(=O)COC(=O)c1cccnc1SC)c1c(N)n(Cc2ccccc2)c(=O)[nH]c1=O	-3	1	-1	.	i	.	1	-8
Cc1nc(CC(=O)c2c(C)cc(O)cc2O)cs1	-14	-6	-12	-4	i	-4	-1	4
O=S(=O)(c1cccc(-c2nnc(SC(F)F)n2-c2ccccc2)c1)N1CCCCC1	-7	1	-9	-4	i	-2	4	.
CC(C)CCOc1ccc(/C=N/N2C(=O)CSC2=S)cc1	-2	-3	9	-6	i	-2	-10	8
C[C@H](CO)N1C[C@H](C)[C@@H](CN(C)S(=O)(=O)c2ccc(F)cc2)Oc2ccc(NS(=O)(=O)c3cccs3)cc2C1=O	4&9	5	1	.	.	.	7	9[16.7 µM]
O=C(/C=C/c1cccc(OCc2ccccc2)c1)c1cccnc1	.	-1	0	-10	i	-1	16	7
O=C(NCc1ccc(Cl)cc1)[C@@H]1CCCN1S(=O)(=O)c1ccc(Cl)cc1	-1	4	-4	.	.	.	-19	3
CCN(CC)CCN(Cc1cc2cc(C)cc(C)c2[nH]c1=O)C(=S)NCc1ccco1	.	-6	-1	41	i	-2	1	0
COc1ccc(NC(=O)C2Cc3c(-c4cccc(C(C)=O)c4)ccnc3O2)cc1 (stereo not given)	-16	9	-9	.	.	.	.	-42

Later entries.
SMILES	Yeast UUG start	MT1-MMP act inh	MT1-MMP act inh RFP	eIF4H inh	Rce1 inh	PABP polyA inh	CSC inhib	HIV Env fusion
CC1CCN(c2ccccc2NC(=O)c2cc3ccccc3o2)CC1	-15	-2	-6	-8	i	9	49	-179
Cc1ccc(C(C)C)c(OCCn2ccnc2C)c1	-15	-2	-3	4	i	15	.	10
CC1N=C2c3ccccc3N=C(SCc3cc(=O)n4cc(Cl)ccc4n3)N2C1=O (stereo not given)	-14	-1	-1	8	i	20	8	15
CCCOc1ccc(C2C(=O)N(C3CCCCC3)CC(=O)N2CCCOCC)cc1OC (stereo not given)	9	-2	0	-1	i	-3	.	12
COCCNC(=O)C1CC2Cn3c(nc4cc(C)c(C)cc43)C2N1C (stereo not given)	-9	2	4	3	i	-4	-5	2
CC(C)Oc1ccc(S(=O)(=O)N2CCOCC2)cc1NC(=O)CC1CC2CCC1C2 (stereo not given)	-10	-3	3	.	.	.	.	2
Cn1c(=O)cc(SCC(=O)N2CCCC2)c2ccccc21	-8	-6	3	-3	i	-12	-8	-40
O=C(O)c1ccccc1NS(=O)(=O)c1cccc2nsnc12	-16	-6	2	16	i	18	31	-70
Cc1ccc(N(CC(=O)NCCSc2ccccn2)S(=O)(=O)c2ccc(F)cc2)cc1	.	-1	-5	2	i	5	7	40
COc1cccc(CN2C(=O)N(C(C)C)C(N(O)C(=O)NC(C)C)C2(C)C)c1OC (stereo not given)	5	1	2	1	i	-5	-2	.
Cc1ccc(S(=O)(=O)N(C(=O)c2ccncc2)c2ccc(OC(=O)c3ccncc3)c3ccccc23)c(C)c1	-11	0	7	-5	i	1	18	.
CCCc1cc(=O)[nH]c(SCc2cccnc2)n1	.	2	5	13	i	12	-8	.

Single records, from the list above. Values in the order: Yeast UUG start | MT1-MMP act inh | MT1-MMP act inh RFP | eIF4H inh | Rce1 inh | PABP polyA inh | CSC inhib | HIV Env fusion
`CCCc1cc(=O)[nH]c(SCc2cccnc2)n1` in the list: . | 2 | 5 | 13 | i | 12 | -8 | .
`Cc1ccc(C(C)C)c(OCCn2ccnc2C)c1` in the list: -15 | -2 | -3 | 4 | i | 15 | . | 10
`O=C(O)c1ccccc1NS(=O)(=O)c1cccc2nsnc12` in the list: -16 | -6 | 2 | 16 | i | 18 | 31 | -70

Ordered by heavy-atom count (highest first): some entries from above
SMILES	Yeast UUG start	MT1-MMP act inh	MT1-MMP act inh RFP	eIF4H inh	Rce1 inh	PABP polyA inh	CSC inhib	HIV Env fusion
Cc1ccc(S(=O)(=O)N(C(=O)c2ccncc2)c2ccc(OC(=O)c3ccncc3)c3ccccc23)c(C)c1	-11	0	7	-5	i	1	18	.
COc1ccccc1N(CC(=O)N1CCN(c2ccccc2)CC1)S(=O)(=O)c1ccc(C)cc1	10	0	1	5	i	9	-3	18
O=C(NCc1ccc(Cl)cc1)[C@@H]1CCCN1S(=O)(=O)c1ccc(Cl)cc1	-1	4	-4	.	.	.	-19	3
C/C(=N\N=C1\NC(=O)C(CC(=O)O)S1)c1ccccn1 (stereo not given)	5	2	2	27	.	4	3	9
